Screens (PubChem BioAssay)
AID923 = qHTS Assay for Allosteric/Competitive Inhibitors of Caspase-1: Spectroscopic Profiling in AFC Spectral Region; 1.1% of 75,000 active; Potency, µM (top dose mostly 57.5 µM), for inactives: at the highest dose fluorescence increase, hits mostly activators; compound fluorescence, AFC spectral region (405/520 nm); almost no hit is shown here; active means well fitted activation curve with a large enough effect;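 further: 0% is about no effect; scaled to a free AFC standard on each plate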
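Titrations up to 57 uM read every 20 sec for 3 min (405/520 nm) with 50 nM caspase 1 and 5 uM Ac-WEHD-AFC, pH 7.5 HEPES buffer. Fluorescence-vs-time intercept gave baseline, scaled against on-plate AFC standard.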
Starred values were filed as active, the others as inactive. Potency means the concentration at half of the fitted maximal effect.

SMILES	AID923
CNC1C(O)C2OC3OC(C)CC(=O)[C@@]3(O)O[C@H]2[C@H](NC)C1O (stereo partly drawn)	-1.8%
Oc1ccc2c(c1)OCC1(O)Cc3cc(O)c(O)cc3C21 (stereo not drawn)	4.5%
CCCCC(=O)O[C@@]1(C(=O)CO)C(C)CC2C3CCC4=CC(=O)C=C[C@@]4(C)[C@]3(F)C(O)C[C@]21C (stereo partly drawn)	-1.8%
CCOC(N)=O	0.6%
CC1CC2C3CCC4=CC(=O)C=C[C@]4(C)[C@@]3(Cl)C(O)C[C@]2(C)C1(OC(=O)c1ccco1)C(=O)CCl (stereo partly drawn)	-2.0%
CCc1ccc(CCOc2ccc(CC3SC(=O)NC3=O)cc2)nc1 (stereo not drawn)	-0.5%
COc1c(O)cc2c(c1O)C1OC(CO)C(O)[C@H](O)[C@H]1OC2=O (stereo partly drawn)	-1.5%
C/C=C/C(=O)N(CC)c1ccccc1C	1.5%

Some of the entries so far, with each value named.
CCCCC(=O)O[C@@]1(C(=O)CO)C(C)CC2C3CCC4=CC(=O)C=C[C@@]4(C)[C@]3(F)C(O)C[C@]21C (stereo partly drawn)
  AID923 = -1.8%

CCOC(N)=O
  AID923 = 0.6%

CC1CC2C3CCC4=CC(=O)C=C[C@]4(C)[C@@]3(Cl)C(O)C[C@]2(C)C1(OC(=O)c1ccco1)C(=O)CCl (stereo partly drawn)
  AID923 = -2.0%

CCc1ccc(CCOc2ccc(CC3SC(=O)NC3=O)cc2)nc1 (stereo not drawn)
  AID923 = -0.5%

Not all compounds are listed; the hit share may differ from the screen's.
